Screening results deposited in PubChem BioAssay by Johns Hopkins Ion Channel Center.
Kir21 block: blocks the mouse Kir2.1 inward-rectifier potassium channel; hit rate 0.85% among 310,000; HEK293-Kir2.1, FluxOR thallium flux fluorescence; hits give low values; P35561; B-score at 10 µM;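 active = fluorescence ratio B-score at or below minus 3 SD of library scores, with starting-brightness B-score within 2 SD, cut at about -4.2 in these data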;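 note: channel flux triggered by added potassium and thallium sulfate stimulus; B-score of peak minus minimum fluorescence over baseline after thallium stimulus; more negative B-score means stronger Kir2.1 block with less thallium influx; some compounds called inactive have numbers as strong as hits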
Target sequence (P35561 whole entry, looked up): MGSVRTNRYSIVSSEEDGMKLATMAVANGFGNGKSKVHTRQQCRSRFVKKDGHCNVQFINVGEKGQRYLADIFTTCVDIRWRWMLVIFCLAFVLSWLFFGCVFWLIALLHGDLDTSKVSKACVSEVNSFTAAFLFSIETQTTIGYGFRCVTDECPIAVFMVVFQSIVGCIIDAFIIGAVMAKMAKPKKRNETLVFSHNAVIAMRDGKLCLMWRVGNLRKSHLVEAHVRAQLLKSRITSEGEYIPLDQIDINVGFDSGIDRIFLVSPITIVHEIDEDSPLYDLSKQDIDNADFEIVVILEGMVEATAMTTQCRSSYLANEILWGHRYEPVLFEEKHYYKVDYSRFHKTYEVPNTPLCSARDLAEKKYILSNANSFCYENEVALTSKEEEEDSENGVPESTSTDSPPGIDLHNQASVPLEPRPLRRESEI
Starred values were filed as active, the others as inactive; & = joins results of further samples.

What do the screens show for `CCc1nc(NCc2cccnc2)c2oc3ccccc3c2n1`?
Kir21 block: 0.31

How did Cc1ccc2c(c1)COc1c3ccc(C(=O)NC(C)C)cc3nn1-2 do in these assays?
Kir21 block: -0.47

Results for O=C(NCCCN1CCN(Cc2ccccc2)CC1)c1nnc(Cc2c(F)cccc2Cl)o1 ?
Kir21 block: 1.37

What do the screens show for `Cc1cccc(NC(=S)N2CCN(c3ccccn3)CC2)c1`?
Kir21 block: 0.42

Results for CCc1ccc(CNC(=O)c2ccc(NC(=O)C3=CSCCO3)cc2)cc1 ?
Kir21 block: 0.34

What do the screens show for `CCCn1nc(NC(=O)c2ccco2)c2cc3cc(C)ccc3nc21`?
Kir21 block: 0.06

How did COc1ccc(C2SCC(=O)N2c2nnc(C34CC5CC(CC(C5)C3)C4)s2)cc1 (stereo not given) do in these assays?
Kir21 block: -1.74

What do the screens show for `Cc1ccc(NS(=O)(=O)c2ccc(CCC(=O)NCc3cccnc3)cc2)cc1`?
Kir21 block: -0.52

What do the screens show for `O=c1c([N+](=O)[O-])c[nH]c2ccccc12`?
Kir21 block: -0.86

What do the screens show for `Cc1c(OCC(=O)NCCN2CCOCC2)ccc2c(-c3ccccc3)cc(=O)oc12`?
Kir21 block: -1.22

What do the screens show for `COc1ccc(CNC(=O)N2CCN(c3ccccc3OC)CC2)cc1`?
Kir21 block: 2.63

How did O=C1CCN(Cc2ccccc2)CCN1[C@H](CO)c1ccccc1 do in these assays?
Kir21 block: -0.43

How did CCC(C)(C)n1nnnc1C(c1ccccn1)N1CCCCC1 (stereo not given) do in these assays?
Kir21 block: 0.34

Results for CC(=O)N1CCN(S(=O)(=O)c2ccc(C)c([N+](=O)[O-])c2)C1C(C)C (stereo not given) ?
Kir21 block: 0.16

Results for CC1CCc2nc3sc4c(c3c(N)c2C1)CCCC4 (stereo not given) ?
Kir21 block: 1.98

Results for CCCCn1c(N)c(Sc2ccc([N+](=O)[O-])cc2)c(=O)[nH]c1=O ?
Kir21 block: -0.93

What do the screens show for `CC(=O)N=C1SC2CS(=O)(=O)CC2N1c1c(Cl)cccc1Cl` (stereo not given)?
Kir21 block: -0.78

Results for COc1ccc(CCn2c(-c3ccccc3)nc3c(c(=O)c4ccccc4n3C)c2=O)cc1 ?
Kir21 block: 0.68

How did CCS(=O)(=O)n1nc(-c2ccccc2)cc1N do in these assays?
Kir21 block: -0.98

What do the screens show for `CC(C)CN(C(=O)COC(=O)c1nc(Cl)ccc1Cl)c1c(N)n(Cc2ccccc2)c(=O)[nH]c1=O`?
Kir21 block: 0.03

How did N#C/C(=N\O)c1nc(-c2ccccc2)cs1 do in these assays?
Kir21 block: -0.74&1.66

What do the screens show for `O=C(Cc1cccc2ccccc12)NNC(=O)Nc1cccc(Cl)c1`?
Kir21 block: 0.1

Results for O=C(CN1CCN(C/C=C/c2ccccc2)CC1)Nc1ccc(F)cc1F ?
Kir21 block: 0.66

Results for CCOC(CCNC(=O)CCC(=O)Nc1ccc2nc(N3CCN(C)CC3)cc(C)c2c1)OCC ?
Kir21 block: -0.5

How did CCn1c(SCC(=O)Nc2ccc3c(c2)OCCO3)nnc1-c1ccccn1 do in these assays?
Kir21 block: -0.57

Results for CCc1noc(C)c1C(=O)NNC(=O)COc1ccc(C)c(C)c1 ?
Kir21 block: -0.77

Results for CC(Cc1ccsc1)NC(=O)CCc1nnc(CCc2ccccc2)o1 (stereo not given) ?
Kir21 block: -0.67

How did CCOc1ccccc1NC(=O)c1nnn(-c2ccc3c(c2)OCCO3)c1N do in these assays?
Kir21 block: -0.34

Results for COc1ccc(C(=O)CN2CC(C)SC2=Nc2ccc(Cl)cc2)cc1 (stereo not given) ?
Kir21 block: -1.71

What do the screens show for `O=C(Nc1ccc(Br)cn1)c1ccc([N+](=O)[O-])cc1Cl`?
Kir21 block: 1.62

What do the screens show for `NCCNc1ccc2nnnn2n1`?
Kir21 block: 0.44

How did CCc1ccc(/C=C(\C)C(=O)c2c(C)cc(C)[nH]c2=O)cc1 do in these assays?
Kir21 block: 0.52

What do the screens show for `NC(=O)C1CCN(C(=O)Cc2ccsc2)CC1`?
Kir21 block: 1.34

What do the screens show for `COC(=O)C1C(=O)/C(=C/N(C)C)C(=O)CC1(C)C` (stereo not given)?
Kir21 block: -0.4

What do the screens show for `Cc1cccc(N2CCN(C(=O)CCNC(=O)Cn3ccc4ccccc4c3=O)CC2)c1C`?
Kir21 block: -0.12

What do the screens show for `CCc1ccc(C2C(C#N)=C(N)N(N(C)C)C3=C2C(=O)CCC3)s1` (stereo not given)?
Kir21 block: -1.62

How did COc1cccc(CN2CCN(CCc3ccccc3)C(CCO)C2)c1OC (stereo not given) do in these assays?
Kir21 block: 1

How did CCOc1ccccc1N(CC(=O)N1CCCC1)S(C)(=O)=O do in these assays?
Kir21 block: 0.24

What do the screens show for `O=C(CSCCO)Nc1ccccc1`?
Kir21 block: 1.76

What do the screens show for `Cc1[nH]c(=O)[nH]c(=O)c1S(=O)(=O)NCC12CC3CC(CC(C3)C1)C2`?
Kir21 block: -0.22

How did COc1ccc(C(=O)NC(=S)NNC(=O)c2ccc(NC(C)=O)cc2)cc1Br do in these assays?
Kir21 block: -0.49

How did Cc1cc(C)n(C(=O)CNC(=O)c2ccccc2F)n1 do in these assays?
Kir21 block: -0.39

What do the screens show for `COc1cccc(N2CC(C(=O)Nc3nnc(SCc4ccccn4)s3)CC2=O)c1` (stereo not given)?
Kir21 block: 0.51

Results for Cc1cc(S(=O)(=O)Nc2c(C(=O)O)[nH]c3ccccc23)ccc1F ?
Kir21 block: 1.47

How did O=C(COC(=O)/C=C/c1ccccc1[N+](=O)[O-])NCC1CCCO1 (stereo not given) do in these assays?
Kir21 block: -1.17

What do the screens show for `CCOC(=O)c1c(-c2ccccc2)cn2ccccc12`?
Kir21 block: -2.73

How did Cc1cc(O)cc(=O)n1C do in these assays?
Kir21 block: -0.21

Results for NC(=O)c1c(NC(=O)c2ccccc2)sc2c1CCC2 ?
Kir21 block: 0.96

What do the screens show for `COc1ccc(C(=O)Nc2nnc(S(=O)(=O)N3CCC(C)CC3)s2)cc1OC`?
Kir21 block: 0.01

Results for Cc1cc(=O)n2nc(N3CCC(C(=O)NCc4ccccc4)CC3)sc2n1 ?
Kir21 block: 1.11

How did Cc1nn(C)cc1C1Nc2ccccc2C(=O)N1O (stereo not given) do in these assays?
Kir21 block: -1.91

What do the screens show for `COc1cc(C(=S)N2CCCC2)cc(OC)c1OS(=O)(=O)c1ccc(NC(C)=O)cc1`?
Kir21 block: 0.44

What do the screens show for `COc1cc(C2=CCN(C(C)=O)CC2)ccc1OC(C)=O`?
Kir21 block: 3.2

What do the screens show for `O=C(O)Cc1csc(-c2cccc(F)c2)n1`?
Kir21 block: -0.07

What do the screens show for `CC(C)n1c(C(O)c2ccc3c(c2)OCO3)nc2ccccc21` (stereo not given)?
Kir21 block: -0.62

Results for Cc1c(C(=O)NCc2cccnc2)oc2ccc(S(=O)(=O)N3CCC4(CC3)OCCO4)cc12 ?
Kir21 block: -1.25

How did CC(=O)c1ccc(N2CCN(C(=O)c3ccc4c(=O)n(-c5ccccc5)c(=O)[nH]c4c3)CC2)cc1 do in these assays?
Kir21 block: 0.47

What do the screens show for `O=C(/C=C/c1ccccc1)Oc1ccccc1C(=S)N1CCOCC1`?
Kir21 block: 1.75

Results for COCCNC(=O)C1CC(c2ccccc2[N+](=O)[O-])=NO1 (stereo not given) ?
Kir21 block: 0.87

What do the screens show for `COC(=O)c1sc(C(F)(F)F)c(-c2ccccc2)c1S(=O)(=O)NC(C)(C)C`?
Kir21 block: 0.32

What do the screens show for `COc1cc(Br)c(Br)c(Br)c1N`?
Kir21 block: 1.7

How did COC(=O)[C@H](CCSC)NC(=O)NCCc1ccccc1F do in these assays?
Kir21 block: 1.63

Results for CCOC(=O)c1c(C)[nH]c2ccc(O)cc12 ?
Kir21 block: 0.2

What do the screens show for `O=C(Nc1ccc(F)c(Cl)c1)C1CCCC1`?
Kir21 block: 1.1

Results for Cc1cc(-c2n[nH]c(=S)n2/N=C/c2ccc(Br)s2)n[nH]1 ?
Kir21 block: 0.41

How did O=C(CNc1ccccc1)N/N=C/c1ccc([N+](=O)[O-])o1 do in these assays?
Kir21 block: 2.13

What do the screens show for `COc1ccc(S(=O)(=O)N[C@@H](Cc2ccccc2)C(=O)N2CC[C@@]3(O)CCCC[C@H]3C2)cc1`?
Kir21 block: 0.02

Results for CCOc1ccc2nc(NCCNC(=O)Nc3cccc(C)c3)c(C#N)cc2c1 ?
Kir21 block: -0.8

Results for O=C(NCCc1c[nH]c2ccccc12)c1ccc([N+](=O)[O-])cc1 ?
Kir21 block: -0.58

How did Cc1c(C(=O)N/N=C/c2ccccc2)[nH]c2c([N+](=O)[O-])cccc12 do in these assays?
Kir21 block: -1.49

Results for Cc1ccc(N2C(=O)c3ccccc3C2C(=O)c2cc(C)ccc2O)cc1 (stereo not given) ?
Kir21 block: -0.37

What do the screens show for `c1ccc2c(c1)C(=NC1CCCCC1)NC2=NC1CCCCC1`?
Kir21 block: 0.61

How did Cc1cc(C)c2c(CN3CCN(CCO)CC3)cc(=O)oc2c1 do in these assays?
Kir21 block: 0.7

What do the screens show for `CC(=O)c1cccc(NC(=O)COC(=O)c2cccc(N3C(=O)c4ccccc4C3=O)c2)c1`?
Kir21 block: 0

Results for O=C(NCc1ccc(F)cc1)c1ccc(CS(=O)(=O)Cc2ccccc2F)o1 ?
Kir21 block: -0.4

Ordered by count of non-hydrogen atoms (smallest number first): 11 of the compounds above
What do the screens show for `COc1cc(Br)c(Br)c(Br)c1N`?
Kir21 block: 1.7

What do the screens show for `O=C(Nc1ccc(F)c(Cl)c1)C1CCCC1`?
Kir21 block: 1.1

Results for Cc1cc(-c2n[nH]c(=S)n2/N=C/c2ccc(Br)s2)n[nH]1 ?
Kir21 block: 0.41

How did O=C(CNc1ccccc1)N/N=C/c1ccc([N+](=O)[O-])o1 do in these assays?
Kir21 block: 2.13

How did COC(=O)[C@H](CCSC)NC(=O)NCCc1ccccc1F do in these assays?
Kir21 block: 1.63

How did Cc1cc(C)c2c(CN3CCN(CCO)CC3)cc(=O)oc2c1 do in these assays?
Kir21 block: 0.7

How did Cc1c(C(=O)N/N=C/c2ccccc2)[nH]c2c([N+](=O)[O-])cccc12 do in these assays?
Kir21 block: -1.49

Results for Cc1ccc(N2C(=O)c3ccccc3C2C(=O)c2cc(C)ccc2O)cc1 (stereo not given) ?
Kir21 block: -0.37

Results for O=C(NCc1ccc(F)cc1)c1ccc(CS(=O)(=O)Cc2ccccc2F)o1 ?
Kir21 block: -0.4

Results for CCOc1ccc2nc(NCCNC(=O)Nc3cccc(C)c3)c(C#N)cc2c1 ?
Kir21 block: -0.8

What do the screens show for `CC(=O)c1cccc(NC(=O)COC(=O)c2cccc(N3C(=O)c4ccccc4C3=O)c2)c1`?
Kir21 block: 0

(continued)
What do the screens show for `COC(=O)c1ccc(-n2c(C)cc(C(=O)COC(=O)CC3Sc4ccccc4NC3=O)c2C)cc1` (stereo not given)?
Kir21 block: 1.84

What do the screens show for `CC1(C)CC(=O)C2=C(C1)N(Cc1cccnc1)C(=O)C2(NC(=O)C1CC1)C(F)(F)F` (stereo not given)?
Kir21 block: 0.05

How did O=C(NCC1CC1)C1(C(F)(F)F)CC(CCCO)CCCO1 (stereo not given) do in these assays?
Kir21 block: -1.31

How did CCCn1c(-c2ccncc2)n[nH]c1=S do in these assays?
Kir21 block: -0.04

Results for N/C(=N\OCc1ccccc1)c1nonc1N ?
Kir21 block: -2.22

What do the screens show for `Cn1nc(OCCOc2ccccc2)ccc1=O`?
Kir21 block: -1.29

How did Cc1cc(C)n(-c2nc3c(c(=O)[nH]c(=O)n3C)n2CC(O)c2ccccc2)n1 (stereo not given) do in these assays?
Kir21 block: 1.06

What do the screens show for `CCn1ncc(C2C(C(=O)Nc3ccc(C)cn3)=C(C)NC3=C2C(=O)CCC3)c1C` (stereo not given)?
Kir21 block: 0.62

How did Cc1ccc(C(=O)OC(C(=O)Nc2ccc(Cl)cc2C(F)(F)F)c2ccccc2)cc1 (stereo not given) do in these assays?
Kir21 block: 0.1

How did COc1ccc(NC(=O)CC2(Cc3ccccc3)CCOC(C)(C)C2)cc1 (stereo not given) do in these assays?
Kir21 block: 3.69

Results for Cc1ccc(C)c2c1c1ccccc1n2C ?
Kir21 block: -1.1

How did COc1cc(C(=O)NNC(=O)c2ccc(NC(C)=O)cc2)cc(OC)c1OC do in these assays?
Kir21 block: -0.26

How did O=c1cc(CN2CCN(c3ccccc3)CC2)c2c(ccc3ccccc32)o1 do in these assays?
Kir21 block: -0.39

What do the screens show for `O=C(NN1CCOCC1)c1cc(-c2ccncc2)nc2ccccc12`?
Kir21 block: 0.08

How did COc1ccccc1NC(=O)Nc1ccnn1C1CCN(C(=O)c2ccccn2)CC1 do in these assays?
Kir21 block: -0.29

How did COc1cccc(Nc2ncnc3ccccc23)c1 do in these assays?
Kir21 block: -0.33

Results for COc1ccc(-c2nnc(N(C)C(=O)C3CCCO3)s2)cc1 (stereo not given) ?
Kir21 block: 1.57

How did COc1ccc([N+](=O)[O-])cc1NC(=O)c1ccc(N(Cc2ccccc2C)S(C)(=O)=O)cc1 do in these assays?
Kir21 block: -0.03

What do the screens show for `Cc1ccc(C)c(NC(=S)NC(NC(=O)/C=C/c2ccccc2)C(Cl)(Cl)Cl)c1` (stereo not given)?
Kir21 block: -1.53

What do the screens show for `CCCCNC(=O)CCn1ccc2cc(S(=O)(=O)N3CCCC3)ccc21`?
Kir21 block: -0.28

How did Cc1nc2sc(C(c3ccco3)N3CCC(C)CC3)c(O)n2n1 (stereo not given) do in these assays?
Kir21 block: 2.67

What do the screens show for `Cc1ccc(CNc2nc(N)c([N+](=O)[O-])c(NCCO)n2)cc1`?
Kir21 block: -1.97

These rows are one share of the data; most or all hits stand in other tables.
